From PubChem
FGF22 binding: binders of recombinant human FGF22 by thermal shift. SYPRO orange fluorescence; percent of sucrose octasulfate shift, DMSO zero. 1.5% of 340,000 active. calls only at 9.99 µM;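 active means melting point raised past a set limit in the mean and every replicate; three in four hits are not shown here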
Target sequence (Q9HCT0 whole entry, looked up): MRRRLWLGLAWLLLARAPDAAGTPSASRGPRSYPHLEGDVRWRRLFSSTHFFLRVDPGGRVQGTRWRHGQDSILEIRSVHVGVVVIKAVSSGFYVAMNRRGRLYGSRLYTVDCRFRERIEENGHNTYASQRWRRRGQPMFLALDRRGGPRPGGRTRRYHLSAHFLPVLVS
Ecoli growth: blocks Escherichia coli growth; OD600, 23 h; hits give low values; 0.21% of 330,000 active; OD600 absorbance (concentration not given with the values);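 active means OD600 absorbance below the run mean of sample wells minus 3.6 SD, in any replicate, cut at about 0.56 in these data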;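 further: stock transfer was 300 nL into about 60 µL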
ALR inh: human ALR oxidase inhibition via reduced H2O2; P55789; purified ALR, DTT oxidation, H2O2 HRP-luminol luminescence; AID 485317; inhibition, % (test concentration not listed); 3.8% of 290,000 active;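 active means mean and each replicate at 75% or more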;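 further: stock transfer was 7.5 nL into about 7.5 µL; 0% = neutral wells and 100% = wells with inactivated enzyme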
HNF4A DNA FP: change in binding of human HNF4 alpha to DNA; activity change, % at 10 µM; 0.3% of 360,000 active; P41235; HNF4a-FITC DNA binding, fluorescence polarization, 1 h; in the data active means activity change above about 30%, passing the limit was not always enough;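 further: controls were the assay level and a saturating level of protein; the project sought stronger binding though the title names inhibitors; some compounds called inactive have numbers as strong as hits; positive values seem to mean higher polarization but the record does not say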
Target sequence (P41235 whole entry, looked up): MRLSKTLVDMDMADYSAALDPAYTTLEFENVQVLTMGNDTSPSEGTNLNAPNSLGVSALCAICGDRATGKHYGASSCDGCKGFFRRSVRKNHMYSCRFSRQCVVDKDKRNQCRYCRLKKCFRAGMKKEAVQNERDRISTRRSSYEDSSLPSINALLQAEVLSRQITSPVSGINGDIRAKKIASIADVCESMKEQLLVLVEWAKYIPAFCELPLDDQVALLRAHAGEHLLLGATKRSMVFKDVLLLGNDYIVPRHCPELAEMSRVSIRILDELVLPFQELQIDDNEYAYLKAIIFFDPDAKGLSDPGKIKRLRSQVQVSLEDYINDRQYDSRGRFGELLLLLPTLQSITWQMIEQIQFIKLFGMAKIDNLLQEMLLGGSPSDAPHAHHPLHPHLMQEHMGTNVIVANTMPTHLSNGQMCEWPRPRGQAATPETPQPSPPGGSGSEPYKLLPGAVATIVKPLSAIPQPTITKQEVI
B2AR ag: activates human beta-2 adrenergic receptor causing internalization | 0.43% of 340,000 active | response, % (test concentration not listed) | Am2.2-beta2AR cells, FAP receptor internalization, flow cytometry; reference of the scale not given here | AID 504454 | P07550;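 active means response above a set limit, near 3 SD of response in nonfluorescent compounds, cut at about 42% in these data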;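 further: stock transfer was 100 nL into about 11 µL; a reference agonist was the positive control; negative values mostly stem from fluorescent compounds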
Target sequence (P07550 whole entry, looked up): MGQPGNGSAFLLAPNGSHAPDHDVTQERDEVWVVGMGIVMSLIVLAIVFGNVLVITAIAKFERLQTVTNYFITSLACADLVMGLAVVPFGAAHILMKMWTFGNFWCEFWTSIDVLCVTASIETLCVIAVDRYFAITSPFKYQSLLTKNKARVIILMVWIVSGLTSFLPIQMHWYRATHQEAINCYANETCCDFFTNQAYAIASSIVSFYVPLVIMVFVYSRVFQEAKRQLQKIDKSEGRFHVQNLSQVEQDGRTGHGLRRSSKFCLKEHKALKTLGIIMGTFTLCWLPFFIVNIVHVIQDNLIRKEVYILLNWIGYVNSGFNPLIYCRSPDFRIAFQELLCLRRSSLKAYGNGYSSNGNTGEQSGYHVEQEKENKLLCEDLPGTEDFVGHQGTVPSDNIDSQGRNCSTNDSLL
UCH37 DUB inh: blocks the human deubiquitinase UCH37; inhibition, % (test concentration not listed); Q9Y5K5; purified proteasome/UCH37, Ub-AMC cleavage fluorescence; AID 588478; 0.33% of 330,000 active;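 active means mean of two replicates above 20%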;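 further: 0% = compound-free wells with enzyme and 100% = wells lacking proteasome; stock transfer was 100 nL into about 20 µL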
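Material: Human UCH37 enzyme supplied as purified proteasome complex | Schedule: 30 min compound-proteasome preincubation then 25 min substrate reaction, room temperature | Detection: AMC fluorescence from Ub-AMC cleavage, excitation 355 nm, emission 460 nm | Benchmarks: Wells without proteasome as full block, compound-free enzyme plus substrate as uninhibited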
LANA-H2A inh: blocks KSHV LANA binding to histone H2A/H2B; 0.6% of 320,000 active; cell-free LANA-H2A/H2B peptide, fluorescence polarization; Q9QR71; inhibition, % (no concentration beside the values); in the data active means inhibition mostly above about 10%, no sharp cut-off; inactive means mostly below about 6.7%;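 further: stock transfer was 7.5 nL into about 10 µL; 0% = median of vehicle wells and 100% = median of positive control wells; one replicate is shown; the record names a cut of 25% in any replicate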
* marks the source's active call; other numbers are inactive results; i = inactive; nt = not tested or not shown.

Results follow in this order: FGF22 binding	Ecoli growth	ALR inh	HNF4A DNA FP	B2AR ag	UCH37 DUB inh	LANA-H2A inh
O=C(CCCCC(=O)OCC1CCCO1)OCC1CCCO1 (stereo unspecified)
  i	0.7	nt	1.3	-1	0.9	nt
COc1ccccc1C(=O)NNC(=O)c1ccccc1
  i	0.67	-7	-1.1	-8	0.9	6.8
CCn1ccnc1CNC(=O)CC1C(=O)NCCN1CCCc1ccccc1 (stereo unspecified)
  i	0.7	2	-4.5	1	-2.7	1.0
COc1cccc(CNS(=O)(=O)c2ccccc2Br)c1OC
  i	nt	nt	0.4	-6	nt	nt
Cc1ccc(N2CCN(C(=O)CN3C(=O)c4ccccc4C3=O)CC2)cc1
  nt	0.72	0	0.7	1	0.0	-2.8
COC(=O)C1(CCSC)NC(c2ccc(O)c(OC)c2)C2C(=O)N(c3ccc(C)cc3)C(=O)C21 (stereo unspecified)
  i	0.67	43	2.0	3	-1.1	-8.1
O=S(=O)(NC1CC1)c1ccc(S(=O)(=O)N2CCC3(CC2)OCCO3)cc1
  i	nt	-9	0.9	-5	nt	19*
O=C(COC(=O)c1ccc(CSc2ccc(Cl)cc2)cc1)Nc1ccccc1
  i	0.67	-6	-0.7	3	0.6	-0.1
O=C(CN1CCN(c2ccc(F)cc2)CC1)NCC1CCCO1 (stereo unspecified)
  nt	0.67	53	4.1	0	8.0	-2.5
CN1CCc2ccccc2CC1=O
  nt	0.66	-11	-4.7	-1	-2.2	-2.6
C/C(CC(=O)Nc1ccc(F)cc1)=N\NC(=O)Cc1csc(N)n1
  i	nt	6	1.7	-8	nt	-5.9
O=C(Nc1cc(Cl)ccc1N1CCOCC1)c1ccc2c(c1)OCCO2
  i	0.65	-1	-0.8	-7	-0.4	-3.2
Cc1cc(C)cc(NC(=O)Cn2nnc(C(=O)NCc3ccccc3Cl)c2N)c1
  i	0.69	-6	0.4	3	6.9	-7.5
Cc1ccc(C(=O)OC(C)C(=O)NC2CCCCC2C)cc1S(=O)(=O)N1CCCCC1 (stereo unspecified)
  i	0.72	-7	5.5	-2	3.9	7.0
CC1CCCC(C)N1CCCNC(=O)Cn1cc2c(n1)CCCC2 (stereo unspecified)
  nt	0.73	-18	0.1	7	5.4	5.2
Cc1ccc(N=C2SCCCN2C(=O)C2=COCCO2)cc1Cl
  i	0.68	5	4.6	0	4.5	-15
Cc1nc2ccccc2nc1CSc1nnc(N)s1
  nt	0.8	-3	-1.1	-12	0.6	4.5
COCCn1c(N)c(NCc2ccccc2)c(=O)[nH]c1=O
  i	0.68	nt	-11	-7	-12	19
C=CCOC(=O)C1=C[C@H](c2coc3ccccc3c2=O)C[C@H](OCc2ccc(CO)cc2)O1
  i	0.82	6	2.5	-3	1.8	-1.1
Clc1ccccc1CSC1=NCCCN1
  nt	0.68	-7	2.8	-1	1.6	-0.7
CN(CCNC(=O)C1CCCN(c2ncnc3c2nc2n3CCCCC2)C1)Cc1ccccc1 (stereo unspecified)
  i	0.69	-3	3.9	2	1.9	1.8
COc1ccccc1CCC(=O)OCc1csc(CC(=O)Nc2ccccc2C)n1
  i	0.73	-6	-0.1	-9	2.0	-9.6
COc1ccc(C2c3[nH]c4ccccc4c3CCN2CCCn2cccn2)cc1C (stereo unspecified)
  i	0.68	-13	4.2	-2	-30	4.6
COc1ccc2c(c1OC)C(=O)N(c1ccc(F)cc1)C2
  i	0.71	-2	-1.4	4	3.5	-3.6
CCOc1ccc(N2C(=O)C(=O)/C(=C(/O)c3ccccc3)C2c2ccccc2[N+](=O)[O-])cc1 (stereo unspecified)
  i	0.67	nt	1.9	5	9.8	-5.2
O=[N+]([O-])c1ccc(-c2cc(-c3ccc(Cl)cc3)n[nH]2)cc1
  nt	nt	0	9.0	9	nt	-4.9
Cc1ccc(S(=O)(=O)Nc2nc(C)cc(NCCN)n2)cc1
  i	0.69	-3	-2.1	-3	0.1	11
CC1(C)CC(NC(=O)C(=O)NCCc2ccccc2)CC(C)(C)N1
  i	0.68	-1	-3.4	-5	5.8	2.2
C/C(=N\NC(=O)C1(C)CC1(Br)Br)c1ccc(NC(=O)C2CCC2)cc1 (stereo unspecified)
  i	nt	-5	0.3	-3	nt	6.0
COc1cc(Cl)c(CN2CCC(CCC(=O)NC3CC3)CC2)cc1OC
  i	0.68	nt	-1.7	-2	1.3	-2.8

Some of these compounds in order of count of non-hydrogen atoms, rising:
Results follow in this order: FGF22 binding	Ecoli growth	ALR inh	HNF4A DNA FP	B2AR ag	UCH37 DUB inh	LANA-H2A inh
Clc1ccccc1CSC1=NCCCN1
  nt	0.68	-7	2.8	-1	1.6	-0.7
O=C(CCCCC(=O)OCC1CCCO1)OCC1CCCO1 (stereo unspecified)
  i	0.7	nt	1.3	-1	0.9	nt
COc1cc(Cl)c(CN2CCC(CCC(=O)NC3CC3)CC2)cc1OC
  i	0.68	nt	-1.7	-2	1.3	-2.8
COc1ccc(C2c3[nH]c4ccccc4c3CCN2CCCn2cccn2)cc1C (stereo unspecified)
  i	0.68	-13	4.2	-2	-30	4.6
COC(=O)C1(CCSC)NC(c2ccc(O)c(OC)c2)C2C(=O)N(c3ccc(C)cc3)C(=O)C21 (stereo unspecified)
  i	0.67	43	2.0	3	-1.1	-8.1

Following part:
Results follow in this order: FGF22 binding	Ecoli growth	ALR inh	HNF4A DNA FP	B2AR ag	UCH37 DUB inh	LANA-H2A inh
COc1cccc(CCc2nnc(CCC(=O)NC(C)c3c(C)nn(C)c3C)o2)c1 (stereo unspecified)
  nt	0.66	-7	-1.4	6	5.1	6.9
O=C(CNCC1CCCO1)Nc1ccccc1-n1cccc1 (stereo unspecified)
  nt	0.66	2	2.4	-1	0.9	8.1
COc1cccc(C(=O)NNC(=O)/C=C/c2ccccc2)c1
  i	0.7	-8	3.9	2	3.0	2.5
c1ccc(-[n+]2nc(Nc3cccc4ccccc34)sc2-c2c3ccccc3cc3ccccc23)cc1
  nt	nt	33	1.5	1	3.8	-2.8
COc1ccccc1OCCNC(=O)Nc1cc(F)c(F)cc1Cl
  i	0.71	-3	0.1	1	5.6	-1.2
COc1ccccc1/C=N/NC(=O)c1ccc(Cn2nc([N+](=O)[O-])cc2C)cc1
  i	nt	-9	-13	6	nt	2.2
OCCn1c(-c2ccccc2)csc1=Nc1ccccc1
  nt	0.7	99*	-0.8	4	0.8	0.4
O=C(Nc1cccc(Cl)c1)c1cccc(Oc2ccc([N+](=O)[O-])cc2Cl)c1
  i	0.72	-9	1.1	5	-0.2	-3.1
Cc1oc(-c2ccccc2F)nc1CN1CCC(C(=O)NCc2cccnc2)CC1
  nt	0.72	-14	-0.3	0	-4.1	2.4
CCC(C)OC(=O)C1=C(C)OC23OC(N)=C(C#N)C12C(=O)c1ccccc13 (stereo unspecified)
  nt	0.69	1	-1.2	-2	-0.2	1.2
CCC1CCCCN1C(=O)COc1ccccc1NC(C)=O (stereo unspecified)
  nt	0.7	-2	2.6	2	0.1	-2.5
Cc1ccc(-n2c(-c3cnccn3)n[nH]c2=S)cc1
  i	0.7	88*	-1.5	1	2.5	0.4
CC(=O)CC(C)(C)Nc1nc2ccc([N+](=O)[O-])cc2o1
  i	0.66	nt	3.5	4	11	-3.1
Cc1ccccc1Nc1nnc(SCC(=O)c2cc3ccccc3o2)s1
  nt	nt	nt	0.6	2	nt	2.7
C[C@H](NC(=O)c1nc[nH]c1C(=O)N[C@@H](C)c1ccccc1)c1ccccc1
  i	nt	0	2.5	-3	4.6	4.7
Cc1nn(C)c(C(=O)N2CCc3ccccc32)c1Br
  nt	0.69	42	-2.4	1	5.6	-0.4
O=C(CSc1nnnn1C1CCCCC1)NCc1cccc(C(=O)O)c1
  nt	0.73	2	-3.8	-5	5.8	5.1
CCC1(c2ccc(F)cc2)NC(=O)N(CC(=O)Nc2ccc(N3CCCCC3)cc2)C1=O (stereo unspecified)
  i	nt	28	-1.9	-2	nt	1.3
Cc1nc2ncnn2c(C)c1CCC(=O)NCCc1ccccc1
  nt	0.64	-9	-1.7	1	0.0	1.5
NC(=O)c1ccsc1NC(=O)CSc1nnc2ccccn12
  i	0.67	24	-2.9	4	0.8	8.3
Nc1ccc2ccc(O)cc2c1
  i	0.71	nt	-1.8	17	-12	nt
Cn1c(NC(=O)C[n+]2cc(-c3ccccc3)n3c2CCC3)cc(=O)n(C)c1=O
  nt	0.72	-4	3.8	-7	-0.6	-1.9
COc1ccc2nc(/N=C/c3cccc(OC)c3O)sc2c1
  i	nt	-158	20	6	nt	-2.1
COc1ccc(/C=N\NC(=O)C2COc3ccccc3O2)cc1O (stereo unspecified)
  i	nt	99*	-1.7	-2	nt	-6.2
Fc1ccc(N2Cc3ccsc3C=N2)cc1
  nt	0.68	-17	2.6	3	-35	-5.1
Cc1ccc(N2CCC(N3CCN(C4CCCCC4)C(CCO)C3)CC2)cc1 (stereo unspecified)
  nt	0.7	99*	-1.1	1	2.5	1.6
CCN1CCN(C(=O)c2ccc3c(=O)n(CCC4=CCCCC4)c(=O)[nH]c3c2)CC1
  nt	0.67	nt	-0.9	7	0.4	-5.4
CCC(C)c1ccccc1N1CC(C(=O)N2CCN(C(=O)c3ccco3)CC2)CC1=O (stereo unspecified)
  i	0.6	-4	-3.0	-7	2.8	0.2
COc1ccccc1CNS(=O)(=O)CCNCCc1ccccc1
  i	nt	nt	2.2	-5	nt	nt
CC(OC(=O)Cn1nnc2ccccc21)C(=O)NC1CCCC1 (stereo unspecified)
  i	0.7	-2	-1.3	4	2.4	3.9
Cc1cc(=O)[nH]c(SCC(=O)N2CCC(C(N)=O)CC2)n1
  nt	0.68	-6	4.3	5	1.9	-0.4
CN(C)S(=O)(=O)c1ccc(S(=O)(=O)N2CCCC(C(=O)NC3CCCC3)C2)cc1 (stereo unspecified)
  i	0.73	-1	0.1	8	3.5	0.2
COc1ccc2[nH]c(=O)c(CN(C(=O)C(C)C)c3ccccc3OC)cc2c1
  i	0.65	-19	-7.3	0	-38	0.4
CCN(CC)CCCN=Cc1c(O)n(-c2ccc(C)cc2)c(=O)c2ccccc12
  i	0.67	-3	2.0	-1	8.5	-1.1
O=C(CCCCC(=O)Nc1ccccc1)Nc1ccccc1
  i	0.68	nt	-0.8	3	1.2	3.6
Cc1c(-n2c(O)c(C3=c4ccccc4=NC3=O)sc2=S)c(=O)n(-c2ccccc2)n1C
  i	0.71	-5	1.6	3	5.3	-141
CCC(C(=O)O)n1nc(-c2ccccc2)c2cc(Cl)ccc21 (stereo unspecified)
  i	0.71	1	-3.0	0	-3.3	-4.0
CCOC(=O)c1ccc(N2C(=O)CC(Nc3ccc(CCO)cc3)C2=O)cc1 (stereo unspecified)
  nt	0.67	-13	1.5	3	5.7	3.9
CCN(CC)S(=O)(=O)c1ccc(C2=NOC3(C2)N(C)c2ccccc2C3(C)C)cc1 (stereo unspecified)
  i	0.74	1	2.7	0	2.3	0.4
CCOC(=O)N1CCN(C(=O)CSc2nc3c(cnn3-c3ccc(C)cc3)c(=O)[nH]2)CC1
  i	0.79	18	1.1	-2	3.8	-6.1
O=C1CC(c2ccco2)Cc2c1cnn2-c1nc2ccccc2s1 (stereo unspecified)
  i	0.69	27	5.6	4	-1.0	-1.9
COc1ccc(NC(=O)CSc2nnc(NC(=O)c3ccco3)s2)cc1OC
  i	0.72	-7	-3.4	-1	5.6	-1.8
COc1ccc(CC(=O)Nc2ccc(C(=O)Nc3ccccc3C(=O)O)cc2)cc1OC
  nt	0.62	7	2.8	-1	5.1	1.9
CN(CC(=O)NCc1ccc(F)cc1)Cc1cccc(Cl)c1
  i	0.66	-22	-0.3	1	1.5	0.1
CCOC(=O)c1cc(-c2ccccc2C)n(CC2CC(c3ccc(OC)cc3)=NO2)n1 (stereo unspecified)
  i	0.71	17	-1.5	-4	1.7	0.2

Not all compounds are listed; rates above refer to the full screens.
